Screening results from PubChem.
Six1-Eya2 inh: Six1/Eya2 interaction inhibition. Q15475+O00167. AlphaScreen GST-Six1/His-Eya2 binding, biochemical; hits give low values; control for the full effect not named in the record. activity change, % (concentration not given with the values). 360,000 compounds, 0.56% hits. AID 651725; in the data active = activity change below about -65%; inconclusive = about -30% to -65%; inactive = above about -30%; also: % is scaled to controls: 0 for no effect and ±100 for the full control effect
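Six1/Eya2 binding was read as AlphaScreen signal after compounds were pinned into GST-Six1 plus His-tagged Eya2 (5X stock 250/500 nM) in pH 8.0 Tris/NaCl/TCEP buffer, beads added, then incubated 1 h, 37 C, dark.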
TRPML1 inh: inhibitors of human TRPML1 channel; activity change, negative = inhibition, % (no concentration beside the values); 390,000 compounds, 0.02% hits; TRPML1-inducible cells, Ca2+ dye fluorescence, FDSS; hits give low values; inhibition of EC80 agonist-evoked calcium signal; Q9GZU1; in the data active means activity change below about -50%; inconclusive means about -30% to -50%; inactive means above about -30%;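 also: stimulus is agonist 54-4 at its EC80 concentration; % is scaled to controls: 0 for no effect and ±100 for the full control effect; compound concentration not given in the record; the text of the record puts the active cut at -80%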
Target sequence (Q9GZU1 whole entry, looked up): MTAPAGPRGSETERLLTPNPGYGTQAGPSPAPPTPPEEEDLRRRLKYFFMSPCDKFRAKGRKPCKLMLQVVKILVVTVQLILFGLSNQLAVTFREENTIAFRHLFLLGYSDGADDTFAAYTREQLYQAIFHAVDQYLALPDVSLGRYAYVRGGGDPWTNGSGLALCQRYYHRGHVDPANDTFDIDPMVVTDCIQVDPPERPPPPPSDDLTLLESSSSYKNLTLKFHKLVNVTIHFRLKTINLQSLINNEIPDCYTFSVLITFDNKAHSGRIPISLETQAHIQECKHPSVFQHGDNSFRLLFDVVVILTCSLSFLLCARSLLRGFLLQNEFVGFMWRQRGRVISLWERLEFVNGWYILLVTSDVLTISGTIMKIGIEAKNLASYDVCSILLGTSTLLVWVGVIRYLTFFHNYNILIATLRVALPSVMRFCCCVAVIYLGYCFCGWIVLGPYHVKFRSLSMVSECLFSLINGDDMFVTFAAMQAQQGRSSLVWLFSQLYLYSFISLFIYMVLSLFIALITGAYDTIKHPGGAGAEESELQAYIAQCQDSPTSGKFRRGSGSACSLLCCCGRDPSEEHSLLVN
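TRPML1-DL cells, Tet-induced overnight (~16 h, 37 °C) at 1,500 cells/well, were loaded with Ca8 no-wash dye plus quencher for 45-90 min at room temperature. Compounds were pinned during FDSS kinetic reading; agonist 54-4 at EC80 (4 uM final) then added.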
PINK1 modulator: changes PINK1 expression | Potency, µM (doses to about 76.6 µM), without a hit: at the highest dose activation (PINK1 increase), actives largely listed as activators | 410,000 compounds, 0.2% hits | AID 624263 | PINK1 immunofluorescence, high-content cytometry, 24 h; active = well fitted activation curve with a large enough effect; inconclusive = small, poorly fitted or top-dose-only effect; inactive = flat fitted curve, though single readings scatter; cell line not stated here;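 also: potency is read from the fitted curve at half-maximal effect; % of control where 0% means no effect; nearly all actives have a fitted effect of over 65% in size; a mitochondrial uncoupler was the plate control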
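Cells are seeded, rested 12 hours, then given compound at five concentrations or DMSO for 24 hours. After fixation, blocking and antibody staining, PINK1 amount and mitochondrial localization are scored; CCCP serves as control.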
D2 PAM: human D2 receptor positive allosteric modulation | P14416 | DiscoveRx D2 beta-arrestin cells, luminescence, 90 min; 100% = 57 uM dopamine signal | potentiation, % (test concentration not listed) | 360,000 compounds, 0.23% hits; active = potentiation of 50% or more; inconclusive = 30% to 50%; inactive = 30% or less;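 also: compound concentration not given in the record; tested on top of an EC20 dose of dopamine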
Target sequence (P14416 whole entry, looked up): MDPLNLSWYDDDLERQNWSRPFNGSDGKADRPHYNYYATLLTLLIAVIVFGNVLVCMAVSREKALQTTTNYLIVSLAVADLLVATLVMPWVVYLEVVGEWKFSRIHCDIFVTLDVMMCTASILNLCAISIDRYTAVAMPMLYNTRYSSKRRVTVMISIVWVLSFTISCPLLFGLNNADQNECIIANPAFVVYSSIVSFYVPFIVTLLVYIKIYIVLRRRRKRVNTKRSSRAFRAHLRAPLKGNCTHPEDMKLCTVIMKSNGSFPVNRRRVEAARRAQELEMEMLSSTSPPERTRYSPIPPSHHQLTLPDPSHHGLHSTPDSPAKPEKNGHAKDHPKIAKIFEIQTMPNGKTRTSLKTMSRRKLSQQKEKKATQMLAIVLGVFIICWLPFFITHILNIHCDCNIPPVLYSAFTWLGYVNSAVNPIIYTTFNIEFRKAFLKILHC
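PathHunter beta-arrestin assay in DiscoveRx D2 cells. Compounds were added with an EC20 of dopamine (50 nM final) for 90 min at 37 deg C. Luminescence was read 1 h after detection reagent, with 57 uM dopamine as the EC100 control.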
TRPML1 ag: human mucolipin-1 channel agonism | Q9GZU1 | TRPML1-expressing cells, Ca2+ dye fluorescence, FDSS; host cell line not named in the record; reference of the full effect not given here | activation, % (test concentration not listed) | 410,000 compounds, 0.12% hits | AID 624414; in the data active = activation above about 50%; inconclusive = about 30% to 50%; inactive = below about 30%; also: 0% is about no effect; the text of the record puts the active cut at 80%
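Cells: TRPML1-DL, 1X Tet inducer, ~16 h at 37 degrees C/5% CO2. Dye: ABD Ca8 no-wash + quencher, 45-90 min RT. Read: 10 s baseline, compound add, 110 s agonist phase; 54-4 EC80 (4uM final), 110 s antagonist phase.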
D2 ag: agonists of human D2 dopamine receptor (beta-arrestin); activation, % (concentration not given with the values); DiscoveRx PathHunter D2 beta-arrestin, luminescence, 90 min; 100% = 57 uM dopamine signal; P14416; 360,000 compounds, 0.084% hits; in the data active = activation above about 40%; inconclusive = about 15% to 40%; inactive = below about 15%; also: the text of the record calls up to 30% inactive
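DiscoveRx PathHunter D2 beta-arrestin cells (2,100/well) attached overnight, then compound-stimulated 90 min at 37 C in HBSS/10 mM HEPES/0.1% Tween-20 buffer; beta-galactosidase complementation read by luminescence after 1 h at ambient temperature. Dopamine 57 uM final (EC100) as control.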
Active calls of the source: *; ? = inconclusive; . = not tested or not shown; & = joins results of further samples; [ ] = remark or other dose. Not all compounds are listed. The share of hits here may be higher or lower than overall.

SMILES | Six1-Eya2 inh | TRPML1 inh | PINK1 modulator | D2 PAM | TRPML1 ag | D2 ag
COc1ccc2c(c1)C1(C)CCN(C)CC(C1)C2O (stereo not given) | 2 | -9 | 2.7% | -14 | 0.5 | 1.7
CCCC[N+]12CCC(CC1)C(C(=O)c1cccs1)C2 (stereo not given) | 12 | -8 | -0.1% | -19 | 0.2 | -1.8
O=C1NC(=O)N(c2ccccc2)C(=O)/C1=C\C=C\c1ccccc1 | -8 | 11 | 0.1% | -2 | 2.9 | -1.4
N[C@@H](Cc1c[nH]c2ccccc12)c1nnc(SCc2ccccc2)o1 | -8 | 6 | 0.9% | 1 | 0.5 | 0.4
C=CCn1c(O)c(C=Nc2ccc(N(CC)CC)cc2)c(=O)[nH]c1=O | 1 | 9 | . | 10 | 7.0 | 4.8
O=C1/C(=C/c2cccnc2)N2CCC1CC2 | -3 | -9 | 0.7% | -2 | -0.7 | -7.4
COc1ccc(CN2CCCC(C(=O)c3sccc3C)C2)cc1O (stereo not given) | -3 | -21 | 3.3% | -8 | 1.0 | 4.9
O=C(CNC(=O)c1ccccc1Cl)Nc1ccc(Br)cc1C(=O)c1ccccc1 | 0 | 16 | 2.5% | -7 | 0.4 | -4.7
C#C[C@]1(O)CCC2C3C(=O)C=C4C(Cl)=CCC[C@]4(C)C3CC[C@@]21C (stereo not given in full) | -5 | 34 | 7.0% | -10 | 0.1 | -3.3
[N-]=[N+]=CC(=O)OC[C@H](N)C(=O)O | 2 | -3 | -0.2% | -4 | -0.6 | 2.6
COc1ccc([C@@H](O)[C@@H](N)c2ccccc2)cc1 | 10 | 13 | -0.5% | -7 | 0.7 | 1.6
CC1(C)Cc2c(C#N)c(N3CCNCC3)nc(-c3ccco3)c2CS1 | -4 | 4 | -2.0% | -14 | 0.7 | -6.9
CC1CCC2C(C)C(=O)OC3OC4(C)CCC1C32OO4 (stereo not given) | -2 | 13 | 3.3% | 62* | 0.2 | ?
Cc1cccc(N2C(=O)NC(=O)/C(=C/c3cc4c(cc3[N+](=O)[O-])OCO4)C2=O)c1 | 5 | -18 | 0.4% | 10 | 2.7 | 1.9
COc1ccccc1N1C(=O)CC(=O)NC1=O | 3 | 4 | 0.4% | -7 | 0.5 | -5.7
N#Cc1c(/N=C/c2c(O)n(Cc3ccco3)c(=O)[nH]c2=O)sc2c1CCCC2 | ? | -15 | -0.6%[38.3 µM] | 9 | 0.3 | .
CCOC(=O)c1ccccc1C(=O)OCC | 5 | -7 | 0.0% | -8 | -0.5 | 1.6
COCCNC(=O)N1[C@H]2CC[C@@H]1C(C(=O)OC)=C(c1cccc(C#N)c1)C2 | 7 | -5 | 0.2% | -3 | 0.3 | -3.3
Cc1cc(N(CCCl)CCCl)ccc1C=Cc1ccncn1 | 15 | -2 | 4.0% | -5 | ? | 4.9
O=C1NC(=O)C(=Cc2ccccc2[N+](=O)[O-])C(=O)N1 | -27 | -6 | 6.1% | -5 | -0.3 | 2.5
CN1CC(Br)C(=O)NC1=O (stereo not given) | 3 | 4 | -0.9% | -13 | -0.1 | -0.6
O=C(Cc1ccc([N+](=O)[O-])cc1)N1CCN(Cc2ccc3c(c2)OCO3)CC1 | -2 | -9 | 0.8% | 2 | 0.4 | 1.5
CCOc1ccc(-n2c(-c3ccoc3)nc3ccccc3c2=O)cc1 | -1 | -4 | 1.5%[38.3 µM] | 9 | 1.4 | -3.4
O=C(c1ccccc1F)c1cn(Cc2ccc(F)cc2)c2ccccc12 | 17 | 4 | 5.1% | -17 | 3.6 | -4.2
C/C(=N\NP(=S)(c1ccccc1)c1ccccc1)c1ccc(O)cc1O | -1 | -12 | 9.6% | -5 | -0.4 | -3.1

Random excerpt: four entries already listed, in no set order.
SMILES | Six1-Eya2 inh | TRPML1 inh | PINK1 modulator | D2 PAM | TRPML1 ag | D2 ag
CCOC(=O)c1ccccc1C(=O)OCC | 5 | -7 | 0.0% | -8 | -0.5 | 1.6
COCCNC(=O)N1[C@H]2CC[C@@H]1C(C(=O)OC)=C(c1cccc(C#N)c1)C2 | 7 | -5 | 0.2% | -3 | 0.3 | -3.3
COc1ccc(CN2CCCC(C(=O)c3sccc3C)C2)cc1O (stereo not given) | -3 | -21 | 3.3% | -8 | 1.0 | 4.9
N[C@@H](Cc1c[nH]c2ccccc12)c1nnc(SCc2ccccc2)o1 | -8 | 6 | 0.9% | 1 | 0.5 | 0.4

Continuation:
SMILES | Six1-Eya2 inh | TRPML1 inh | PINK1 modulator | D2 PAM | TRPML1 ag | D2 ag
Cc1c(C(=O)OC2CCCCC2)[nH]c2c1C(=O)CC(c1ccccc1)C2 (stereo not given) | . | 31 | ? | . | 1.1 | .
Fc1ccc2c(c1)nnn2C1CCN(Cc2c(Cl)cccc2Cl)CC1 | -10 | 1 | 4.4% | -18 | 0.8 | -2.6
Cc1cc(O)c(CN2CC=C(c3ccccc3)CC2)cc1C(C)C | -11 | -20 | 16% | -16 | 2.5 | -3.4
Cc1cc(OCC(=O)N2CCC(C(=O)O)CC2)c2c3c(c(=O)oc2c1)CCCC3 | 2 | . | -0.2% | -9 | . | -4.9
C=C1C(=O)OC2C1CCC(C)C1(O)C=CC(=O)C21C (stereo not given) | 0 | . | ? | 10 | . | 1.9
OC(c1ccccc1)(c1ccccc1)C1CCNCC1 | 2 | -16 | 0.7% | -2 | 0.5 | -5.0
O=C(NC1(C(F)(F)F)Oc2ccccc2O1)N1CCC2(CC1)OCCO2 | -3 | -6 | 10%[38.3 µM] | 13 | 0.3 | 5.6
CC(C)C(=O)c1cn(Cc2ccc(C#N)cc2)c2ccccc12 | 10 | -10 | -1.0% | -1 | 4.4 | -2.3
CCOc1ccc(C(C)=O)cc1Cn1ccsc1=N | 4 | -16 | 1.4% | -6 | -1.3 | 0.1
COc1ccc2c(c1)CC1(CN2C)C(=O)NC(=O)N(c2ccc(C)cc2)C1=O (stereo not given) | -11 | -8 | -0.2% | . | 0.5 | 6.4
CN(C)c1ccc([P+](=O)c2ccc(N(C)C)cc2)cc1 | -11 | 20 | 1.7% | -3 | 0.7 | 2.1
S=c1[nH]c2ccccc2[nH]1 | 3 | -8 | -1.9% | -6 | -0.2 | 1.5
O=C(C1CC(=O)N(C2CCCC2)C1)N1CCC2(CC1)OCCO2 (stereo not given) | 1 | 5 | 0.6%[38.3 µM] | -6 | 2.6 | -1.5
COc1ccc(CN2C(=O)NC(=O)/C(=C/c3ccc(OC)c(OC)c3OC)C2=O)cc1 | 7 | 4 | 0.6% | -2 | 0.3 | 0.9
COC(=O)C1=C(c2ccc(OC)c(OC)c2)C[C@@H]2CC[C@H]1N2C(=O)N1CCC(O)CC1 | 1 | -12 | -1.1% | 1 | -0.1 | -3.9
CN(C)CCCN=Cc1c(O)n(Cc2ccco2)c(=O)[nH]c1=O | 3 | -1 | 3.0% | -11 | 0.0 | 1.4
Cc1cccc(-n2c(-c3cccs3)nc3ccccc3c2=O)c1 | -10 | -7 | 0.6% | 0 | 0.2 | -2.5
N#Cc1ccc(NC(=O)CN2C(=O)NC3(CCCCCCC3)C2=O)cc1Cl | -2 | -1 | 0.9% | -1 | 0.1 | -6.7
CC(C)N1C(=O)CC2(CC[N+](C)(CCOC(=O)C(O)(c3ccccc3)c3ccccc3)CC2)C1=O (stereo not given) | 18 | 9 | 2.0% | -11 | 0.2 | -4.8
NCCc1c[nH]c2ccc(OCc3ccccc3)cc12 | -15 | -12 | -1.0% | 1 | 0.1 | -0.3
O=C(Nc1ccc(Br)cc1)N1C[C@H]2C[C@@H](C1)c1cccc(=O)n1C2 | 1 | . | -0.2% | -6 | . | -3.2
CC[C@H]1CN2CCC1C[C@H]2[C@H](O)c1ccnc2ccc(OC)cc12 (stereo not given in full) | -5 | 38 | -0.1% | -16 | -0.2 | -7.7
CC(=O)O[C@@H]1/C=C/[C@](C)(O)C[C@@H](C)C/C=C/[C@H]2[C@H](O)C(C)=C(C)[C@H]3[C@H](Cc4ccccc4)NC(=O)[C@@]123 | 1 | -2 | ? | 5 | 0.3 | -0.2
O=C1NC(=O)C(=Cc2ccc(SC3CCCCC3)o2)C(=O)N1 | -21 | 5 | -1.9% | -3 | 2.8 | -1.8
COC1C(O)C(C)OC(OC2CCC3(C=O)C(CCC4C3CCC3(C)C(C5=CC(=O)OC5)CCC43O)C2)C1O (stereo not given) | 3 | . | -0.5% | -1 | . | 13
(listing goes on)
SMILES | Six1-Eya2 inh | TRPML1 inh | PINK1 modulator | D2 PAM | TRPML1 ag | D2 ag
O=c1c2ccccc2nc(-c2ccc(Cl)cc2Cl)n1-c1ccncc1 | -7 | -4 | 44%[38.3 µM] | 5 | -0.7 | -4.2
Cc1cc(/C=C2\C(=O)NC(=O)N(Cc3ccco3)C2=O)c(C)n1-c1ccc(C(=O)O)cc1 | -21 | 10 | -0.5% | -6 | -0.3 | -4.1
O=C(Nc1nccs1)C(Cl)(Cl)Cl | -5 | -3 | -0.4% | -7 | -0.4 | -1.2
COc1ccc(-n2c(-c3ccccc3F)nc3ccccc3c2=O)cc1 | 2 | 0 | 1.1% | -4 | -0.7 | -7.0
NNP(=O)(CC(=O)c1ccccc1)c1ccccc1 (stereo not given) | 5 | 15 | -0.7% | -2 | 2.5 | 0.6
Cc1cccc(-n2c(O)c(C=NCc3cccnc3)c(=O)[nH]c2=O)c1C | 21 | 4 | 2.2% | -16 | -0.6 | -0.7
O=C(N/N=C/c1c(O)n(CCc2ccccc2)c(=O)[nH]c1=O)c1ccccc1O | ? | 1 | 0.1% | -12 | -0.4 | -4.3
COc1ccccc1CN1CCN(C(=O)COc2ccccc2)CC1 | 1 | -12 | -0.1% | -37 | 1.2 | -1.8
CCCCC(C)C(OC(=O)CC(CC(=O)O)C(=O)O)C(CC(C)CC(O)CCCCC(O)CC(O)C(C)N)OC(=O)CC(CC(=O)O)C(=O)O (stereo not given) | 5 | . | 1.7% | -14 | . | -3.3
Cc1ccccc1-n1c(O)c(C=Nc2ccc(N(C)C)cc2)c(=O)[nH]c1=O | -8 | -17 | -2.6% | 15 | 0.1 | 4.3
COc1ccc(NC(=O)CCc2nc(C3=CCN(Cc4cccc(Cl)c4)CC3)no2)cc1OC | . | 8 | 1.4% | . | -0.9 | .
Cc1nnc2n1-c1ccc(Br)cc1C(c1ccccc1Cl)=NC2 | 6 | -12 | -2.6% | -4 | 0.0 | -0.3
O=c1oc2ccccc2c(O)c1[C@H]1c2ccc(O)cc2Oc2c1c(=O)oc1ccccc21 | -12 | -3 | -0.5% | -9 | -0.6 | -4.0
O=C(O)CCCOc1ccc(Cl)cc1Cl | 6 | 2 | 1.7%&-0.1% | -3 | -0.7 | -3.3
O=P(N[C@@H](c1ccccc1)[C@@H]1C[C@H]1CO)(c1ccccc1)c1ccccc1 | 1 | 6 | 1.3% | 5 | 0.2 | 0.3
COc1cc(C(=O)NN=Cc2ccc(N(CCCl)CCCl)cc2)cc(OC)c1OC | -6 | 5 | 9.2% | -8 | 1.1 | -0.7
